RecA splice inh: blocks M. tuberculosis RecA intein splicing. P9WHJ3. cell-free RecA intein splicing, fluorescence. inhibition, %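 (about 9 µM by stock and volumes)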. 290,000 compounds, 0.75% hits. AID 2221; in the data active = inhibition above about 30%; inconclusive = no clear call, values can overlap the other calls;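 note: 0% = vehicle wells and 100% = reference inhibitor control wells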
Target sequence (P9WHJ3 whole entry, looked up, canonical isoform): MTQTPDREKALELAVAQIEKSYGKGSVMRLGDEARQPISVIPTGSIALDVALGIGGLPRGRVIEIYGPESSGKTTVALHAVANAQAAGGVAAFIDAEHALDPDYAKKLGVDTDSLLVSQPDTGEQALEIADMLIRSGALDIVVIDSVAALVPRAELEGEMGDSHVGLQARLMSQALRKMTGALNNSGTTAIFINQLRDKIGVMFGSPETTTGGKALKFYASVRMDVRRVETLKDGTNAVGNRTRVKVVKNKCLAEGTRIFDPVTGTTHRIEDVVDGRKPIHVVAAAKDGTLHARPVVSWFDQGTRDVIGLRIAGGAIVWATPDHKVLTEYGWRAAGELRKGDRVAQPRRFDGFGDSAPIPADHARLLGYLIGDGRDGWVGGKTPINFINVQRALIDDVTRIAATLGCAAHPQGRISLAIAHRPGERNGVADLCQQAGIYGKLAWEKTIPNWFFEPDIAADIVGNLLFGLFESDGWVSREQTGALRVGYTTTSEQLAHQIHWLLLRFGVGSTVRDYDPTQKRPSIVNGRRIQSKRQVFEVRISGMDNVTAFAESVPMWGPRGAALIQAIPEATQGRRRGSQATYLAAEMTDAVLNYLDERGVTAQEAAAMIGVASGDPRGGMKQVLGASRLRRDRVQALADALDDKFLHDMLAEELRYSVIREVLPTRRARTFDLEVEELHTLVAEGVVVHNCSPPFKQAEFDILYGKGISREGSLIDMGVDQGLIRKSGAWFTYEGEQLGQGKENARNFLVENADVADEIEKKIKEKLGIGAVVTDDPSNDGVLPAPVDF
Mtb betalactam: beta-lactam sensitization of Mtb H37Rv; 330,000 compounds, 0.27% hits; inhibition, % at 25 µM; M. tuberculosis H37Rv growth with meropenem, percent inhibition; hits of this screen are not shown here;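 active = about 74% or more and at least 40 points above the plate without the antibiotic, then above 30% in a dose series; inconclusive = first-round hits that could not be retested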;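 note: growth measured after seven days incubation then overnight dye step; 0% = bacteria only wells and 100% = bacteria with antibiotic; twin plates without the antibiotic show which effects depend on it; some results filed as inactive read as strong as hits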
Arbovirus inh: blocks arbovirus infection | arbovirus infection cell-based antiviral screen | inhibition, % at 10 µM | 200,000 compounds, 0.37% hits;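 active = inhibition from about 30%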;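 note: bluetongue infection of BSR cells; cell survival read as ATP light after 72 h; 0% = infected wells without compound and 100% = uninfected wells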
Mtb H37Rv: M. tuberculosis H37Rv growth inhibitors, H37Rv strain (AID 1626). M. tuberculosis H37Rv growth inhibition; higher % means a stronger effect. inhibition, % at 10 µM, or IC50 in µM where a hit was titrated. 220,000 compounds, 0.95% hits;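 active = confirmed in a dose series; inconclusive = inhibition above 80% but not taken into the dose series; inactive = below 80% or under 30% at every dose of the series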;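 note: bacteria incubated seven days before Alamar blue readout; 0% = bacteria only wells and 100% = bacteria with antibiotic wells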
YopH inh: YopH (Yersinia) phosphatase inhibition; inhibition, %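 (about 10 µM by stock and volumes)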; 140,000 compounds, 0.16% hits; fluorescence Ex485/Em525; AID 898;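 active = inhibition of 50% or more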;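 note: controls were vehicle for no effect and minimum signal wells for full effect; inactives centre near -20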
Arbovirus inh repeat: second read-out of Arbovirus inh, no call of its own (marks repeat the call); inhibition, %; measured here: 10K subset replicate screen; many hits read low in the repeat;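 first of two repeat runs on a subset; 0% = infected and 100% = uninfected wells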
Numbers without * were called inactive; ? = inconclusive; nt = not tested or not shown. This is a subset. The share of hits here may be higher or lower than overall.

SMILES | RecA splice inh | Mtb betalactam | Arbovirus inh | Mtb H37Rv | YopH inh | others
CC(=O)Nc1ccc(S(=O)(=O)NCc2ccc(C(=O)NC(C)c3ccccc3)cc2)cc1 (configuration not stated) | 0.6 | -10 | -2 | -4% | -35
CC1(C)Oc2ccc3ccc(=O)oc3c2/C(=C/Nc2cccc(O)c2)C1=O | 2.2 | 2 | -39 | 5% | nt
Cc1nn(-c2ccccc2)c(Cl)c1CN(C(=O)CCl)c1cccc2ccccc12 | 67* | nt | -34 | 10% | -8
COc1ccc(Cl)cc1-c1n[nH]c(=S)o1 | 1.1 | -7 | 0 | 2% | -20
O=C(O)CCC(=O)NNC(=O)c1cccc(Br)c1 | 0.0 | -1 | 0 | 1% | -33
COc1ccc(-n2ncc3c(SCC(=O)N4CCN(c5ccccc5OC)CC4)ncnc32)cc1 | -0.4 | 99 | -13 | 5% | -4
Cc1cc(C(=O)N2CCCC(CCC(=O)N3CCN(c4ccccn4)CC3)C2)c(C)o1 (configuration not stated) | 0.4 | 1 | 1 | -1% | nt
CCN(CC)CCCNC(CC(=O)Nc1cccc([N+](=O)[O-])c1)C(=O)O (configuration not stated) | -1.5 | -1 | 4 | -8% | -20
COC(=O)c1sccc1Oc1ccc(Cl)cc1N1C(=O)CCC1=O | 0.8 | -11 | nt | -9% | nt
Cc1sc2nc(SCC(=O)N(C)c3ccccc3)n(C)c(=O)c2c1C | -2.1 | 9 | nt | nt | nt
O=S(=O)(c1cc(Cl)c(Cl)cc1Cl)N1CCN2CCCC2C1 (configuration not stated) | 0.8 | -7 | nt | nt | nt
O=C(N[C@@H](Cc1ccccc1)C(=O)OCc1ccccc1)c1nc[nH]c1C(=O)N1CCc2ccccc2C1 | 14 | 54 | nt | 15% | nt
Cc1ccc(NC(=O)CCCCCN2C(=O)[C@@H]3Cc4ccccc4CN3C2=O)c(C)c1 | 2.5 | 4 | nt | nt | nt
COc1ccccc1CN1CCN(Cc2nc(-c3ccccc3)no2)CC1 | -4.7 | 4 | 6 | -8% | nt
COc1ccc(C(=O)NCCS(=O)(=O)N(C)Cc2ccccc2)cc1 | 2.2 | -11 | nt | nt | nt
COc1ccc(S(=O)(=O)N2CCN(C)CC2)cc1NC(=O)c1ccccc1C | -0.1 | 1 | nt | nt | nt
CCC(=O)Nc1ccc2c(c1)nc(CCN1CCN(C)CC1)n2C | -0.7 | 1 | -4 | -9% | -19
CCn1c(=O)n(CC(=O)NC2CCCC(C)C2C)c(=O)c2ccccc21 (configuration not stated) | -3.1 | -7 | -12 | -3% | -23
Nc1ccccc1C(=O)OCC(=O)Nc1ccc(Br)cc1F | 1.4 | nt | -4 | 5% | -11
N#Cc1ccccc1OCc1nnc(-c2ccccc2Br)o1 | 0.5 | 7 | nt | nt | nt
CS(=O)(=O)N(CC(=O)N1CCOCC1)c1cc(C(F)(F)F)ccc1Cl | 1.0 | -2 | nt | nt | nt
COc1ccc(-c2cc(C(=O)Nc3cc(Cl)ccc3O)no2)cc1 | -3.7 | 7 | nt | nt | nt
Cc1ccc(S(=O)(=O)Nc2nc3ccccc3nc2NCC2CCCO2)cc1C (configuration not stated) | 3.9 | -3 | nt | -14% | nt
CN(CC(=O)Nc1ccccc1C(F)(F)F)C(=O)CSc1nnnn1C | -0.8 | -3 | 10 | 2% | nt
O=C(COC(=O)c1cccc(NS(=O)(=O)c2ccc(F)c(F)c2)c1)NC(=O)NC1CCCCC1 | 4.3 | -2 | 5 | -2% | -47
CCN(CC)c1ccc(/C=C2\NC(=O)NC2=O)cc1 | -3.4 | -8 | -6 | 5% | -1
COc1ccc(Cc2nn3c(-c4ccccc4OC)nnc3s2)cc1 | 1.5 | ? | 3 | -2% | -50
Oc1ccc(-c2csc(-c3ccccc3)n2)cc1O | 0.3 | 94 | -13 | 3% | -14
Cc1cccc(C)c1N1CCN(C(=O)N2CCCCC2)CC1 | 7.0 | 6 | -10 | -3% | nt
COc1ccccc1C(=O)Nc1ccc(C(=O)/C=C/c2cccs2)cc1 | 9.1 | 28 | 5 | 15% | -32
CCCc1cc(=O)oc2c(C)c(OCC(=O)c3ccc(N4CCCC4)cc3)ccc12 | nt | nt | -3 | 16% | -60
CC(C)Oc1ccccc1-c1cc(C(=O)N/N=C/c2cccnc2)c2ccccc2n1 | 0.9 | -4 | nt | nt | nt
COc1ccc(C(=O)/C=C/c2ccc(OC)c(COc3ccccc3F)c2)cc1 | 18 | 10 | 8 | 12% | -19
CCN(CCn1cccn1)C(=O)c1cc(COc2cc(C)ccc2C)on1 | 3.5 | 4 | nt | nt | nt
N#CC(=NCc1cccnc1)C1=C(O)c2ccccc2C1=O | -1.8 | 26 | nt | 3% | nt
COCCNC(=S)N/N=C(\C)c1ccc(-n2ccnc2)cc1 | -1.9 | 86 | -3 | -2% | -3
COc1ccc(-c2nnn(CC#N)n2)cc1OC | 3.0 | 74 | -3 | 4% | -3
COc1ccc([N+](=O)[O-])cc1NC(=O)COC(C)=O | -2.7 | -2 | -5 | -4% | nt
Cc1cccc(NC(=O)C2Cc3ccccc3CN2C(=O)OCc2ccccc2)c1C (configuration not stated) | -0.8 | 85 | 8 | 16% | -5
Cc1ccc(Cc2nc(-c3cccc(C)c3)no2)cc1 | 9.2 | 6 | 6 | 6% | -9
Clc1ccc(-c2cc(-c3nnc4n3CCCCC4)c3ccccc3n2)cc1 | 1.6 | 91 | -22 | 72% | -18
Cc1cc(C(=O)COC(=O)c2ccc[nH]c2=O)c(C)n1-c1ccc(F)cc1 | -1.0 | -1 | 1 | -6% | -25
O=C1CNC(=S)N1CCc1ccc(O)c(O)c1 | -4.8 | 2 | nt | 6% | nt
C#CCNC(=O)C1=C[C@H](c2coc3ccccc3c2=O)[C@@H](CCCO)[C@H](OCC)O1 | -2.0 | 0 | 7 | -12% | nt
CNc1cc(N2CCCC2)ccc1[N+](=O)[O-] | 0.6 | 8 | 1 | 1% | nt
Cc1onc(-c2ccccc2)c1C(=O)Nc1sc2c(c1C#N)CCC(C)C2 (configuration not stated) | 5.0 | 1 | -14 | -9% | -13
CCCCNC(=S)NNC(=O)c1cc(-c2cccnc2)nc2ccccc12 | 1.6 | -7 | nt | nt | nt
c1ccc(-c2nc(NCCCn3ccnc3)c3ccccc3n2)cc1 | 2.4 | 96 | 4 | 5.9µM* | nt
O=C(NNC(=O)C12CC3CC(CC(C3)C1)C2)c1cnccn1 | -2.1 | 13 | -9 | 8% | -28
COC(=O)c1cccc(-n2c(CCC(=O)O)ccc2-c2cccs2)c1 | 0.9 | 23 | nt | 6% | nt
CCOc1ccc(NC(=O)N2C[C@H]3C[C@@H](C2)c2cccc(=O)n2C3)cc1 | 1.2 | 0 | nt | nt | nt
CCC1CN(C(=O)N2CCC(C(=O)NCc3cccc(F)c3)CC2)c2ccccc2O1 (configuration not stated) | -1.3 | 2 | nt | nt | nt
CC(C(=O)Nc1cccc([N+](=O)[O-])c1)N1CCN(C/C=C/c2ccccc2)CC1 (configuration not stated) | 1.9 | -1 | 8 | 2% | -12
O=C(c1ccc(Br)o1)N1CCN(c2ccc3nnc(-c4ccccc4)n3n2)CC1 | 1.6 | 5 | -4 | 7% | -12 | Arbovirus inh repeat=-7
O=[N+]([O-])c1ccccc1/C=C/CN1CCN(Cc2ccc3c(c2)OCO3)CC1 | -4.4 | 0 | nt | nt | nt
CCCn1c(=S)[nH]c2cc(Cl)ccc21 | 3.3 | -2 | nt | -13% | nt
Cc1ccsc1C(=O)NNC(=O)C1CCCCC1C(=O)O (configuration not stated) | -0.5 | -9 | 0 | -4% | -45
CN(C)C(CNS(=O)(=O)c1ccc(Cl)cc1)c1cccnc1 (configuration not stated) | 1.5 | -5 | 5 | -3% | -43
Cc1nnc(NC(=O)CCCCCN2C(=O)C3C4C=CC(C4)C3C2=O)s1 (configuration not stated) | 0.0 | 0 | 17 | 1% | -17 | Arbovirus inh repeat=50
CC(C)CNC(=O)c1coc(=O)c(Br)c1 | 0.0 | 11 | -37 | 0% | 6

Fetched by compound from above, 2 records:
SMILES | RecA splice inh | Mtb betalactam | Arbovirus inh | Mtb H37Rv | YopH inh | others
CNc1cc(N2CCCC2)ccc1[N+](=O)[O-] | 0.6 | 8 | 1 | 1% | nt
COC(=O)c1cccc(-n2c(CCC(=O)O)ccc2-c2cccs2)c1 | 0.9 | 23 | nt | 6% | nt

(continued)
SMILES | RecA splice inh | Mtb betalactam | Arbovirus inh | Mtb H37Rv | YopH inh | others
COc1ccc(-c2nc(CS(=O)(=O)CC(=O)NC3CCCCCC3)c(C)o2)cc1 | -3.4 | 5 | nt | nt | nt
CSc1nc(C)cc(-n2ccc(=O)[nH]c2=O)n1 | -3.0 | -4 | 0 | 2% | -21
Cc1nnc(NC(=O)c2cc(-c3ccco3)nc3ccccc23)s1 | -1.1 | 9 | nt | nt | nt
COC(=O)c1noc(C)c1-c1ccnn1C(=O)c1ccc(Cl)cc1 | 5.7 | 1 | nt | -4% | nt
CC(=O)Nc1ccc(NC(=O)c2c(-c3ccccc3Cl)noc2C)c(C)c1 | 0.3 | -2 | nt | nt | nt
COc1cc(C2c3sc(=O)[nH]c3SC3C(=O)N(c4ccc(Br)cc4)C(=O)C32)ccc1O (configuration not stated) | 7.4 | -6 | nt | -8% | nt
COc1ccccc1C(=O)Nc1cccnc1 | -0.3 | -6 | -1 | -4% | nt
CCOc1ccc(C(=O)NC(C(=O)NCC2CCCO2)C(C)C)cc1 (configuration not stated) | 4.5 | -1 | nt | -3% | nt
COc1ccc(NC(=O)c2ccccc2NS(=O)(=O)c2ccc(C)cc2)c([N+](=O)[O-])c1 | -2.4 | 6 | 4 | 4% | -27
Cc1cc2oc(=O)cc(CN3CCN(Cc4ccc5c(c4)OCO5)CC3)c2cc1C | -1.5 | 85 | -13 | 36% | 31
COc1ccc(C(=S)Nc2ccc(C)cc2)cc1 | 1.5 | -19 | 2 | nt | -45
O=C(c1ccccc1)N1CCN(S(=O)(=O)c2ccccc2)CC1 | 0.0 | -2 | nt | 2% | nt
O=C(Nc1ccc(F)cc1)NC1CCCCC1 | 0.9 | 1 | 0 | -2% | -6
Cc1ccc(S(=O)(=O)N2CCCCC2CCNC(=O)C(=O)NC2CCCC2)cc1 (configuration not stated) | -3.1 | -19 | nt | nt | nt
N#CCCN(C(=O)COC(=O)CCc1ccccc1)c1ccccc1 | 0.7 | 10 | nt | nt | nt
CN(C)c1cc[n+](CC(O)C[n+]2ccc(N(C)C)cc2)cc1 | -4.9 | -4 | nt | nt | nt
COc1ccc(C(=O)Nc2ccc(CN3CCCCC3)cc2)cc1 | -6.0 | -7 | -3 | -2% | nt
O=[N+]([O-])c1ccc2c(c1)nc1n2CCN(CC2CCCO2)C1 (configuration not stated) | -0.4 | 9 | 2 | 8% | nt
O=C(O)c1ccccc1C(=O)NC1Cc2ccccc2C1 | 2.0 | -9 | nt | -8% | nt
C=CCN1C(=O)/C(=C2/Sc3ccc(OC)cc3N2C)SC1=Nc1ccccc1 | -5.8 | 0 | -8 | -5% | nt

Filtered by structure, the compounds so far with a CF3 group (two)
SMILES | RecA splice inh | Mtb betalactam | Arbovirus inh | Mtb H37Rv | YopH inh | others
CS(=O)(=O)N(CC(=O)N1CCOCC1)c1cc(C(F)(F)F)ccc1Cl | 1.0 | -2 | nt | nt | nt
CN(CC(=O)Nc1ccccc1C(F)(F)F)C(=O)CSc1nnnn1C | -0.8 | -3 | 10 | 2% | nt

Next results follow:
SMILES | RecA splice inh | Mtb betalactam | Arbovirus inh | Mtb H37Rv | YopH inh | others
O=C(c1ccc(NC2=NC3CS(=O)(=O)CC3S2)cc1)N1CCN(Cc2ccccc2)CC1 (configuration not stated) | 0.6 | 6 | 15 | -2% | -33
CSc1ccc(CCNC(=O)CCc2nnc3ccc(NCCCN4CCCC4=O)nn23)cc1 | 0.0 | -1 | nt | nt | nt
COc1ccc(C2(c3ccc(OC)cc3)NC(=O)N(CC(=O)Nc3ccccc3C(F)(F)F)C2=O)cc1 | 4.0 | 99 | nt | nt | nt
COCCCNC(=O)N1c2ccccc2Sc2ccccc21 | -0.1 | 2 | nt | nt | nt
CCCc1cc(=O)oc2c(C)c(OCC(=O)NCCN3CCOCC3)ccc12 | -0.5 | 3 | nt | nt | nt
O=C(CN1CCCC1)Nc1ccc(OCc2ccccc2)cc1 | -1.1 | 8 | -23 | -1% | nt
COc1ccc(Cc2nc3ccc(C(=O)NCc4ncc(C)[nH]4)cc3o2)cc1OC | 2.0 | -2 | nt | nt | nt
NC1=NC(c2ccccc2)=NC1(NC(=O)c1ccccc1)C(Cl)Cl (configuration not stated) | 3.3 | -11 | nt | -1% | nt
CS(=O)(=O)N(CC(=O)Nc1ccc2c(c1)OCO2)c1ccccc1 | 3.4 | 8 | -8 | -3% | -33
O=C(O)c1ccccc1C(=O)Nc1ccc(Oc2cccc(C(F)(F)F)c2)nc1 | 0.1 | 6 | nt | nt | nt

Compound activity from PubChem BioAssay.
